# Screening data as filed in PubChem.
# GIRK2 act = opens human GIRK2 potassium channels; P48051; HEK293-GIRK2 thallium flux, Thallos fluorescence; calls only for hits at 25 µM; hit rate 0.05% among 63,000; AID 1259325;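 active = among the strongest 0.2% of first-round signals and kept after retests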;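 also: first round at about 10 µM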
# Target sequence (P48051 whole entry, looked up): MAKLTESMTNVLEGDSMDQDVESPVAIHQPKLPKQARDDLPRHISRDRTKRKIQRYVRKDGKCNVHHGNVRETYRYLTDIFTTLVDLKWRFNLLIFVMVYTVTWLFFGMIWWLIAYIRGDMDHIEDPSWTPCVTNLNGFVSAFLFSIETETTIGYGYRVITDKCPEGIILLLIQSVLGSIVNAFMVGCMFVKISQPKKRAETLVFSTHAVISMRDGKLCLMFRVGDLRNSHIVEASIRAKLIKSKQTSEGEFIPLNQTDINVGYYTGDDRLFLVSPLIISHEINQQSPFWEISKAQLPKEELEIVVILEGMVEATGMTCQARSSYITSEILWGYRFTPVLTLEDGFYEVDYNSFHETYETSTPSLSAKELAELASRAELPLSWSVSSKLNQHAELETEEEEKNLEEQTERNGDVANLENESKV
# Calls only; i = inactive. A portion of the library (hit frequency here may not be typical).
SMILES,GIRK2 act
C#CCCNC(=O)Nc1cccs1,i
O=S(=O)(c1ccccc1Cl)N(CCc1cccs1)C1CC1,i
COc1cc(O[C@@H]2O[C@H](CO[C@H]3OC[C@](O)(CO)[C@H]3O)[C@@H](O)[C@H](O)[C@H]2O)cc(OC)c1OC,i
CCCN(Cc1ccsc1)C(=O)/C=C/c1ccccc1,i
Cc1cc(NC(=O)c2cccc([N+](=O)[O-])c2C)n(-c2nc(-c3ccc(F)cc3)cs2)n1,i
COc1cccc(/C=C2\Oc3cc(OCC(=O)O)ccc3C2=O)c1,i
CCC(C(=O)N1CCC(Oc2ccc(C#N)cn2)CC1)c1ccccc1 (configuration not stated),i
O=C(c1cnccn1)N1CCN(Cc2nc3ccccc3[nH]2)CC1,i
CCOC(=O)NNC(=O)c1ccc(=O)n(Cc2ccc(Cl)cc2)c1,i
COc1ccccc1CCNS(=O)(=O)c1cc2c3c(c1)CCN3C(=O)CC2,i
CC(O)(CNC(=O)c1cc2ccccc2oc1=O)c1cccs1 (configuration not stated),i
CN1CCCn2c1nc1c2c(=O)n(Cc2ccc(F)cc2)c(=O)n1C,i
COc1cccc(CNC(=O)C(=O)NCC2OCCCN2S(=O)(=O)c2ccccc2)c1 (configuration not stated),i
Cc1csc(SCC2CCN(C(=O)Nc3ccc(Cl)c(Cl)c3)CC2)n1,i
O=C(Nc1nc(-c2ccccc2)cs1)C1CCN(S(=O)(=O)c2ccc(Cl)cc2)CC1,i
CCCCc1ccc(N2CC(C)Cn3c2nc2c3c(=O)n(CC(=O)OC)c(=O)n2C)cc1 (configuration not stated),i
O=C(O)CC(CC(=O)Nc1ccc(CC(=O)NCC(F)(F)F)cc1)c1cccs1 (configuration not stated),i
O=C(c1ccccc1Cl)N1CC(Oc2nc3ccccc3s2)C1,i
COc1ccc(-c2cnc(SCC(=O)Nc3cc(C)on3)n2-c2ccccc2)cc1,i
CC1CCN(c2nc(N3CCCC3)c3n[nH]nc3n2)CC1,i

# Five compounds from above, ordered by SMILES length, lowest first.
SMILES,GIRK2 act
O=S(=O)(c1ccccc1Cl)N(CCc1cccs1)C1CC1,i
CC(O)(CNC(=O)c1cc2ccccc2oc1=O)c1cccs1 (configuration not stated),i
CN1CCCn2c1nc1c2c(=O)n(Cc2ccc(F)cc2)c(=O)n1C,i
Cc1csc(SCC2CCN(C(=O)Nc3ccc(Cl)c(Cl)c3)CC2)n1,i
COc1ccc(-c2cnc(SCC(=O)Nc3cc(C)on3)n2-c2ccccc2)cc1,i

# New compounds follow
SMILES,GIRK2 act
COc1cccc(-n2c(C)c(C)n3c4c(=O)n(CC(N)=O)c(=O)n(C)c4nc23)c1,i
O=C(c1cc(-c2ccco2)[nH]n1)N1CCN(C(=O)c2cnn3ccccc23)CC1,i
NC(=O)c1nccnc1-c1nc2ccccc2s1,i
Cc1noc(C)c1Cn1cccc1-c1nc(-c2ccc(OC(F)(F)F)cc2)no1,i
CCn1c(C)cc(O)c(C(c2ccc3c(c2)OCO3)c2c(O)cc(C)n(CC)c2=O)c1=O,i
O=C(NCCNc1cc(Nc2ccccn2)ncn1)Nc1ccc(F)c(Cl)c1,i
Cc1ccccc1OCC(=O)NCCN1CCN(S(C)(=O)=O)CC1,i
O=C(CCn1c(=O)[nH]c2ccccc2c1=O)N1CCN(c2cccc(Cl)c2)CC1,i
Cc1nnc(C2CCN(CC(=O)Nc3ccc(C(N)=O)cc3)CC2)s1,i
COc1ccc2c(c1)CCN(C(=O)c1nnn(-c3nc4c(s3)CCCC4)c1C)C2,i
CCNc1cc(NCCNC(=O)c2sc(C)nc2C)nc(C)n1,i
CC(=O)Cn1c(=O)c2c(nc3n(C(C)C)c(C)cn23)n(C)c1=O,i
CCOC(=O)c1cnn2ccc(NC(=O)c3ccc4nsnc4c3)cc12,i
CCCCC[C@H](O)/C=C/[C@H]1[C@H](O)CC(=O)[C@@H]1CC(=O)CCCCC(=O)O,i
Cc1cc(NC(=O)c2nnn(-c3ccc(F)cc3)n2)no1,i
Cc1cc(NC(=O)C(=O)NCC2COC3(CCCCC3)O2)no1 (configuration not stated),i
Cc1ccc(-c2csc3nnc(SCC(=O)N4CCCCCC4)n23)cc1,i
COc1ccc(OC)c(-c2cc(C(=O)N3CCN(Cc4ccsc4)CC3)n(C)n2)c1,i
CCOC(=O)CCn1c(=O)c2c(nc3n(-c4ccc(C)cc4)c(C)c(C)n23)n(C)c1=O,i
Cc1nnsc1C(=O)N1CCN(c2nc3ccc([N+](=O)[O-])cc3s2)CC1,i
CCC(=O)N1CCCC(c2nnc(-c3ccccc3F)s2)C1 (configuration not stated),i
O=C(Cn1nc2c(SC3CCCCC3)nccn2c1=O)Nc1ccc(Br)cc1,i
COc1cccc(Oc2nccn3c(=O)n(CC(=O)Nc4ccc(OC)c(OC)c4)nc23)c1,i
CCOc1ccc(N2CC(c3nc(-c4cccc(OC)c4OC)no3)CC2=O)cc1 (configuration not stated),i
COc1cccc(S(=O)(=O)Nc2cccc(C(=O)N3CCN(C)CC3)c2)c1,i
CCOc1ccc(-c2noc(CSc3nc4ccsc4c(=O)n3C3CC3)n2)cc1,i
NS(=O)(=O)c1ccc(CCNC(=O)c2cccc(-n3ccc4ccccc43)c2)cc1,i
COc1ccc(-c2noc(-c3ccc(=O)n(CC(=O)Nc4c(C)cccc4C)c3)n2)cc1,i
COc1ccc2nc(-c3ccc(Cl)c(NC(=O)c4ccc(F)c(F)c4)c3)cn2n1,i
CC(=O)O[C@H]1c2c3c(cc(O)c2C(=O)O[C@H]1C)O[C@]1(C)[C@H](O)C[C@@H]2C(C)(C)C(=O)C=C[C@@]2(C)[C@H]1C3,i
O=C(CSC1CCCC1)NCC1(O)CCOCC1,i
O=C(CC1CCCCC1)N1CCN(Cc2nc(-c3ccccc3)cs2)CC1,i
COc1cccc(OCC(=O)N(CCc2cccs2)C2CC2)c1,i
O=C(COc1ccc2ccccc2c1)N1CCOCC1CO (configuration not stated),i
CC1(C)CC[C@]2(C(=O)O[C@@H]3O[C@H](CO)[C@@H](O)[C@H](O)[C@H]3O)CC[C@]3(C)C(=CCC4[C@@]5(C)C[C@@H](O)[C@H](O)[C@@](C)(CO)C5[C@H](O)C[C@]43C)C2C1 (some centres not stated),i
COCCNC(=O)c1ccc(Cn2c(=S)[nH]c3cc4c(cc3c2=O)OCO4)cc1,i
Cc1ccc(S(=O)(=O)N2CCCCC2CCNC(=O)C2CC=CCC2)cc1 (configuration not stated),i
Cc1cccc(C)c1NC(=O)Cc1cc(=O)[nH]c(SCc2cccc(Cl)c2)n1,i
O=C(Nc1nc2c(s1)CN(S(=O)(=O)C1CC1)CC2)C1CC1,i
CC(=O)N1CCc2c(sc(NC(=O)/C=C/c3cccs3)c2-c2nc3ccccc3s2)C1,i

# Entries shown so far that have an NH in an aromatic ring (6):
SMILES,GIRK2 act
O=C(c1cnccn1)N1CCN(Cc2nc3ccccc3[nH]2)CC1,i
CC1CCN(c2nc(N3CCCC3)c3n[nH]nc3n2)CC1,i
O=C(c1cc(-c2ccco2)[nH]n1)N1CCN(C(=O)c2cnn3ccccc23)CC1,i
O=C(CCn1c(=O)[nH]c2ccccc2c1=O)N1CCN(c2cccc(Cl)c2)CC1,i
COCCNC(=O)c1ccc(Cn2c(=S)[nH]c3cc4c(cc3c2=O)OCO4)cc1,i
Cc1cccc(C)c1NC(=O)Cc1cc(=O)[nH]c(SCc2cccc(Cl)c2)n1,i

# Remaining list, next part:
SMILES,GIRK2 act
CCc1ccc(NCc2cc3ccc(OC)cc3n(CC(=O)Nc3ccc4c(c3)OCCO4)c2=O)cc1,i
O=C(NCC(Cc1cccc(F)c1)N1CCCCC1=O)c1cccnc1 (configuration not stated),i
CCOc1ccc2cccc(NC(=O)C3CCN(S(C)(=O)=O)CC3)c2n1,i
COc1ccc(OCCNC(=O)N2CCCC2)cc1,i
O=C1CN(c2ccccc2NC(=O)c2cc(-c3ccccc3)on2)CCN1,i
COc1cccc(OC)c1C(=O)NCc1sc2nc(-c3ccc(F)cc3)cn2c1C,i
COc1ccc(S(=O)(=O)N2CCC(OC)CC2)cc1,i
O=C(Nc1cnoc1)c1cc(Br)ccc1Cl,i
COc1ccccc1C(=O)Nc1ccccc1NC(=O)Nc1ccccc1Cl,i
COc1ccccc1C1c2c(oc3ccc(F)cc3c2=O)C(=O)N1c1cc(C)on1 (configuration not stated),i
O=C(CN1CC(c2nc(-c3ncccn3)no2)C1)NCC1CCCO1 (configuration not stated),i
O=C(CN1CCOCC1)Nc1oc2ccccc2c(=O)c1-c1ccccc1,i
CC1(C)C=Cc2c(cc3occ(-c4ccc(O)cc4O)c(=O)c3c2O)O1,i
O=c1ccn(-c2ccccc2)nc1-c1nc(-c2ccc(OC(F)(F)F)cc2)no1,i
COc1cccc(C2C(=C(O)c3ccncc3)C(=O)C(=O)N2CCCN(C)C)c1OC (configuration not stated),i
O=C(Nc1nnc(-c2ccsc2)o1)C1c2ccccc2Oc2ccccc21,i
C/C=C/COc1ccc(N2CCn3c2nc2c3c(=O)n(C)c(=O)n2C)cc1,i
Cc1nc(SC(C)c2ccccc2)[nH]c(=O)c1CC(=O)NCc1ccc(F)cc1 (configuration not stated),i
O=C(NCCn1ncccc1=O)c1cc(-c2ccccc2)n[nH]1,i
CC(Oc1ccccc1F)C(=O)NCCOc1ccc(-c2ccccn2)nn1 (configuration not stated),i
O=C(CCn1cnc2c([nH]c3ccccc32)c1=O)N1CCN(c2ccccc2F)CC1,i
COc1cccc(NC(=O)NCCC(O)c2cccs2)c1OC (configuration not stated),i
COc1ccccc1N1CCN(CCNC(=O)C(=O)Nc2cc(C)cc(C)c2)CC1,i
O=C(NCc1ccccc1)N1CCOC2(CCOCC2)C1,i
CCCCC[C@H](O)/C=C/[C@@H]1[C@@H](C/C=C\CCCC(=O)N(C)C)[C@@H](O)C[C@H]1O,i
Cn1nc(CNC(=O)Cn2c(=O)oc3ccccc32)cc1-c1ccccn1,i
Cc1ccc(S(=O)(=O)NCc2ccccc2)c(C)c1N(C)S(=O)(=O)c1ccccc1,i
Cc1ccc(-c2ccc(N3CCN(S(=O)(=O)c4cc(F)ccc4F)CC3)nn2)c(C)c1,i
CCOc1ccc(C(=O)Nc2sc3c(c2-c2nc4ccccc4s2)CCN(C(C)C)C3)cc1,i
O=C(CCCc1ccccc1)Nc1ccc2c(c1)C(=O)NCC2,i
O=C(CN1CC(c2nc(C3CC3)no2)C1)NCc1ccc2c(c1)OCO2,i
COc1ccc(Cl)cc1NC(=O)NCCOc1ccc(F)cc1,i
O=C(c1ccc(C(F)(F)F)cc1)N1CCN(c2ncnc3c2nnn3-c2ccc(Cl)cc2)CC1,i
Cc1csc(NC(=O)CSc2ncccc2-c2nc3ccccc3[nH]2)n1,i
COc1ccccc1OCC#CCNC(=O)Cn1ccc2ccccc21,i
CCc1ccc(NC(=O)c2ccc(-n3cccn3)nn2)cc1,i
COc1cccc(COc2cn(C)c(C(=O)N3CCN(c4ncccn4)CC3)cc2=O)c1,i
Cc1c(O)c(=O)ccn1C,i
CC(C)(C)c1ccc(NS(=O)(=O)c2cccc(F)c2)cc1,i
C=CCCC(=O)N1CCC(Oc2ncccc2Cl)CC1,i
COc1cc2c(cc1OC)C(=O)OC2,i
Cc1ccc(NC(=O)CN2CCc3[nH]c4c(F)ccc(F)c4c(=O)c3C2)cc1Cl,i
COC(=O)N1CCc2ccccc2C1C(=O)NC1CCSC1=O (configuration not stated),i
Cc1ccc(CNc2ncnc3c(C(=O)N4CCCC4)sc(C)c23)cc1,i
CCOc1ccc(N2C(=O)C3N=NN(Cc4nc(-c5ccccc5Br)no4)C3C2=O)cc1 (configuration not stated),i
c1ccc2c(c1)nc(CN1CCCC1)n1c3ccccc3nc21,i
Cc1nn(-c2ccccc2)c(C)c1N1CCN(C(=O)C2CCN(S(C)(=O)=O)CC2)CC1,i
COC(=O)c1cc(Cl)ccc1NC(=O)Cn1cc(-c2nc(-c3ccc(C)cc3)no2)ccc1=O,i
O=C(OC1CN(c2nc3ccc(F)cc3s2)C1)C1COc2ccccc2O1 (configuration not stated),i
CC(C)c1cc(=O)[nH]c(-n2nc(-c3cccs3)cc2NC(=O)COc2ccc(F)cc2)n1,i
CCOc1cc(/C=C(\C#N)c2nc(-c3cc4ccccc4oc3=O)cs2)ccc1OC(C)C,i
CN(C)S(=O)(=O)N1CCC(c2nnc(C(F)(F)F)o2)CC1,i
Cc1ccc(C)c(S(=O)(=O)N2CCN(CC(O)C3CC3)CC2)c1 (configuration not stated),i
CCN1CCN(c2nc3c(c(=O)n(Cc4ccccc4Cl)c(=O)n3C)n2C)CC1,i
Cc1nc2ccccc2n1CC1CCN(CC(=O)Nc2cccnc2)CC1,i
CCCS(=O)(=O)N1CCc2ccc(NS(=O)(=O)/C=C/c3ccccc3)cc2C1,i
c1ccc(C(CCNc2ncnc3[nH]ncc23)c2ccccc2)cc1,i
O=C(Nc1ccc(Cl)cc1)Nc1ccc2c(c1)CCCN2C(=O)C1CC1,i
O=C(NCCCn1ccnc1-c1ccccc1)c1cc(-c2ccco2)on1,i
COc1ccc(N2CC(C)Cn3c2nc2c3c(=O)n(CCc3ccccc3)c(=O)n2C)cc1 (configuration not stated),i
# The list continues.
SMILES,GIRK2 act
O=C1CC(c2ncon2)CN1c1ccc2c(c1)OCO2 (configuration not stated),i
CC(C)OCC(O)Cn1cnc2c1c(=O)[nH]c(=O)n2C (configuration not stated),i
COc1c[nH]c(C(=O)Nc2cccc(F)c2)cc1=O,i
COc1cc(OC)c(N2C=C(C#N)S(=O)(=O)c3ccccc32)cc1Cl,i
CCC(C)/C=C(C)/C=C/C1=CC2=C(Cl)C(=O)C(C)(OC(C)=O)C(=O)C2=CN1C(CCC(=O)O)C(N)=O (configuration not stated),i

# An excerpt of these results, tab-delimited:
mol	GIRK2 act
O=C(NCCCn1ccnc1-c1ccccc1)c1cc(-c2ccco2)on1	i
Cc1noc(C)c1Cn1cccc1-c1nc(-c2ccc(OC(F)(F)F)cc2)no1	i
COc1cccc(OC)c1C(=O)NCc1sc2nc(-c3ccc(F)cc3)cn2c1C	i
